Compound activity from PubChem BioAssay.
LASV entry inh = blocks Lassa virus binding or cell entry; Lassa virus pseudotyped entry inhibition, cell-based qHTS; control for the full effect not named in the record; many of its hits are not listed in these tables; Potency, µM (top dose mostly 49.2 µM), without a hit: top-dose activity change, negative = inhibition, actives largely listed as inhibitors; 18,000 compounds, 4.1% hits; active = well fitted inhibition curve with a large enough effect; inconclusive = small, poorly fitted or top-dose-only effect; inactive = no such curve, though single readings can be large or run the other way; tested in HEK293 cells; note: luciferase read-out
MARV entry inh = inhibitors of Marburg virus binding or entry into cells | Potency, µM (top dose mostly 49.2 µM), for the others: at the top dose activity change, negative = inhibition, actives largely listed as inhibitors | Marburg virus pseudotype entry/binding inhibition, cell-based; control for the full effect not named in the record; many of its hits are not listed in these tables | 18,000 compounds, 6.5% hits; active means well fitted inhibition curve with a large enough effect; inconclusive means small, poorly fitted or top-dose-only effect; inactive means no such curve, though single readings can be large or run the other way; tested in HEK293 cells; note: luciferase read-out
Numbers without * were called inactive; ? = inconclusive; / = no result given; & = joins results of further samples; [ ] = dose if it differs, or a comment. % is set by controls: 0 for no effect and ±100 for the full control effect; potency is the fitted concentration of half-maximal effect.

(1) CC(=O)O[C@H]1C[C@@H]2CC[C@@H]3[C@H](CC[C@@]4(C)[C@H]3C[C@H](N3CC[N+](C)(C)CC3)[C@@H]4OC(C)=O)[C@@]2(C)C[C@@H]1N1CC[N+](C)(C)CC1
(2) Nc1ncnc2c1ncn2[C@@H]1O[C@H](COP(=O)(O)CP(=O)(O)OP(=O)(O)O)[C@@H](O)[C@H]1O
(3) COc1ccc(/C=C/C(=O)CC(=O)/C=C/c2cccc(O)c2OC)cc1O
(4) COC(=O)c1ccccc1C(=O)NCC1Cc2cc(-c3nc(C)cnc3C)ccc2O1 (stereo not given)
(5) CC1=C2[C@@H](O)[C@H]([C@@H](C)C(=O)NCCC(C)C)CC[C@@]2(C)C=CC1=O
(6) COC(=O)CC=C[C@@H](C)[C@@H](C=NO[C@H](C)c1cn([C@@H]2COC[C@@H]2O)nn1)N[S+](=O)([O-])c1ccc(C)cc1
(7) C/C=C1/C[C@@H](C)[C@](O)(CO)C(=O)OCC2=CCN3CC[C@@H](OC1=O)C23 (stereo not given in full)
(8) O=c1cc(-c2ccccc2)oc2cc(O)c(O)c(O)c12

Assay by compound	1	2	3	4	5	6	7	8
LASV entry inh	8%	-2%	10µM*	-1%	?	4%[8.59 µM]	2%&0%	-19%&26%&1%
MARV entry inh	-13%	5%	8.9µM*	5%	13%	10%[8.59 µM]	?	16%&81%&34%

The list goes on; it opens with the four that closed the last part.
(5) CC1=C2[C@@H](O)[C@H]([C@@H](C)C(=O)NCCC(C)C)CC[C@@]2(C)C=CC1=O
(6) COC(=O)CC=C[C@@H](C)[C@@H](C=NO[C@H](C)c1cn([C@@H]2COC[C@@H]2O)nn1)N[S+](=O)([O-])c1ccc(C)cc1
(7) C/C=C1/C[C@@H](C)[C@](O)(CO)C(=O)OCC2=CCN3CC[C@@H](OC1=O)C23 (stereo not given in full)
(8) O=c1cc(-c2ccccc2)oc2cc(O)c(O)c(O)c12
(9) CC(C)=CC1C(C(=O)OCN2C(=O)C3=C(CCCC3)C2=O)C1(C)C (stereo not given)
(10) Nc1nc(N)c2nc(-c3ccccc3)c(N)nc2n1
(11) NCCC[C@@H](CC(=O)N[C@@H]1CCCC[C@H]1C(=O)N[C@H](CC(=O)N[C@@H](CCC(=O)O)CC(=O)O)Cc1c[nH]c2ccccc12)NC(=O)C[C@H](Cc1c[nH]c2ccccc12)NC(=O)[C@@H]1CNCC[C@H]1N
(12) Cc1cccc(CNc2ncnc3ccc(-c4ccoc4)cc23)c1
(13) CC(Cc1cccc(C(F)(F)F)c1)NCCCc1ccccc1 (stereo not given)
(14) COc1cc(C=NNc2ncnc3c2cnn3Cc2ccccc2)ccc1O
(15) O=C(CCl)c1ccc(Oc2ccc(C(=O)CCl)cc2)cc1
(16) Cc1cccc2c(N3CCCC3)nc(CNS(=O)(=O)c3ccccc3Cl)nc12

Assay by compound	5	6	7	8	9	10	11	12	13	14	15	16
LASV entry inh	?	4%[8.59 µM]	2%&0%	-19%&26%&1%	-19%	?	-12%	-8%	32µM*	/	-8%	?
MARV entry inh	13%	10%[8.59 µM]	?	16%&81%&34%	-2%	?	3%	10%	14µM*	?	12%	-8%

(17) CC(=O)N[C@@H]([C@@H](O)[C@H](O)[C@H](O)CO)[C@@H](O)CC(=O)C(=O)O
(18) COC(=O)C1=C(C(=O)OC)[C@@H]2N(Cc3ccccc3)c3ccccc3[C@@]23C[C@@H](C(=O)OC)N(C(=O)c2cccs2)C3=N1
(19) CC(C)C(=O)NC(C)c1nnc2n1CCN(Cc1cccc3ncccc13)CC2 (stereo not given)
(20) C[C@H]1COc2cccc(F)c2S(=O)(=O)N1
(21) Cc1ccc(C(=O)Nc2cccc(-c3nc(CNC(=O)c4ccccc4-n4cccn4)c(C)o3)c2)s1

Assay by compound	17	18	19	20	21
LASV entry inh	-7%	/	1%	19%	-14%
MARV entry inh	?	?	-19%	22%	?

Record cards, from the list above. Values in the order: LASV entry inh, MARV entry inh
CC(C)C(=O)NC(C)c1nnc2n1CCN(Cc1cccc3ncccc13)CC2 (stereo not given) as listed: 1%, -19%
C[C@H]1COc2cccc(F)c2S(=O)(=O)N1 as listed: 19%, 22%

An excerpt (hit frequency here may not be typical).
